# Screens from PubChem BioAssay.
# KCNQ2 inh – KCNQ2 channel blockers in CHO-K1 cells – cell-based, FluxOR thallium flux, B-score, primary screen (AID 2156). B-score at 10 µM. actives 1.1% (n = 310,000). 20 min; stronger effect = lower value; only compounds with negative scores are shown here; some inactives read as strong as hits. O88943;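 active means fluorescence ratio B-score at most minus 3 library SDs, with starting brightness B-score within 2 library SDs, cut at about -5.5 in these data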
# Target sequence (O88943 whole entry, looked up): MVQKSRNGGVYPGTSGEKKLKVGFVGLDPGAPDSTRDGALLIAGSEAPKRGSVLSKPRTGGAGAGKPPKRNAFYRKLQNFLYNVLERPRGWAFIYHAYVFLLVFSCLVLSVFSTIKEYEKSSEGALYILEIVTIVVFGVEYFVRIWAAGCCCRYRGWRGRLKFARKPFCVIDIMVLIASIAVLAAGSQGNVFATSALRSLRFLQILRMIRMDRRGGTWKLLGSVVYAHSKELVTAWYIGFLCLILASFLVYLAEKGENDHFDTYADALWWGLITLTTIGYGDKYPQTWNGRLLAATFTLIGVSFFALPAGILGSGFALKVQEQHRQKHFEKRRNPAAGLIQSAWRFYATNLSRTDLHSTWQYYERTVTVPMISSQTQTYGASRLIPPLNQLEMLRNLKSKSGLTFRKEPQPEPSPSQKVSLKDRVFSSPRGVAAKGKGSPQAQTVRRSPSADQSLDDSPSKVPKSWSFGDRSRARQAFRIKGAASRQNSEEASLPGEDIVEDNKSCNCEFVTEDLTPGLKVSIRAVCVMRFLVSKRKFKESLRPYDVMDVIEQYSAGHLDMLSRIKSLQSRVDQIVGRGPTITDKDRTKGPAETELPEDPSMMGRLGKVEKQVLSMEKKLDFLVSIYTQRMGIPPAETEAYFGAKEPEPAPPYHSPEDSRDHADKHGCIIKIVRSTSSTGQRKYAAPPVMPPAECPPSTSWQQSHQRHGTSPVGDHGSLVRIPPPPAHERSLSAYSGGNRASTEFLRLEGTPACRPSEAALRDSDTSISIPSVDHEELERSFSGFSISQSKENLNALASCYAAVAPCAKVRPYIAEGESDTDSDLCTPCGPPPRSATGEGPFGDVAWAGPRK
# KCNQ2 inh baseline – recorded beside KCNQ2 inh, whose call it bears; B-score; measured here: initial fluorescence intensity artifact check;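 brightness before thallium and not channel activity; 0 = typical well and far values either way flag optical interference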
# * marks the source's active call; other numbers are inactive results; i = inactive.
molecule	KCNQ2 inh baseline	KCNQ2 inh
CC(C)(C)NC(=O)CSc1nnc(-c2ccccc2)c(-c2ccccc2)n1	-0.55	i
CCCNC(=O)C(NS(=O)(=O)c1cccc2nsnc12)c1ccccc1 (stereo not given)	0.24	i
CCOC(=O)c1cccc(NC(=O)C2(S(=O)(=O)c3ccc(C)cc3)CC2)c1	-0.23	i
Cc1cc(C(=O)CCl)c(C)n1-c1cccc([N+](=O)[O-])c1	0.36	i
O=C(c1ccc(Br)c([N+](=O)[O-])c1)N1CCN(Cc2ccccc2)CC1	-0.51	i
COc1cc(C(=O)NNC(=O)c2cc(C)[nH]n2)cc(OC)c1OC	-0.68	i
CCCC(=O)N(c1ccccc1)C1C=CS(=O)(=O)C1 (stereo not given)	1.5	i
Fc1ccc(Nc2nc(-c3ccncc3)cs2)cc1	-0.68	i
Cc1c(NC(=O)COC(=O)c2ccc(F)c(S(=O)(=O)N3CCOCC3)c2)c(=O)n(-c2ccccc2)n1C	1.4	i
CC(=O)Nc1ccc(S(=O)(=O)N2CCN(C(=O)c3ncoc3-c3ccccc3)CC2)cc1	-0.13	i
O=C(O)C1CCCCC1C(=O)N1CCCC1 (stereo not given)	-0.47	i
C=CCc1ccccc1OCCSc1nc2ccc([N+](=O)[O-])cc2s1	-0.18	i
COC(=O)C1C2C=CC3(CN(c4cccc(C)c4)C(=O)C13)O2 (stereo not given)	-1	i
CC(=O)c1cc2c(s1)-c1cc(F)ccc1OC2	0.13	i
COc1cc(C2C(C(=O)c3ccco3)=C(O)C(=O)N2c2cc(C)on2)ccc1OCc1ccccc1 (stereo not given)	-0.27	i
CC(C)(C)[C@H]1C=C(C(=O)N2CCN(Cc3ccccc3)CC2)O[C@@H](OCCCCO)C1	-0.42	i
O=[N+]([O-])c1cccc(/C([O-])=C(/C(=S)Nc2ccccc2)[n+]2ccccc2)c1	-1.4	i
O=C(NCCCN1CCOCC1)c1cc(-c2cccc(O)c2)on1	0.76	i
O/N=C/c1ccc(OCC(O)COc2ccc(/C=N/O)cc2)cc1	-0.32	i
COc1ccc([N+](=O)[O-])cc1N1C(=O)c2cccc3cccc(c23)C1=O	3.7	i
COc1ccc(C2N(C(=O)c3ccccc3)CCN2C(=O)c2ccccc2)cc1	-2.4	i
Cc1cccc(NC(=O)CCS(=O)(=O)c2cccc3nsnc23)c1C	-0.1	i
O=C(O)c1ccc2c(c1)C(=O)N(c1ccc(/C=C/C(=O)c3ccccc3)cc1)C2=O	0.16	i
O=C(Nc1ccnn1C1CCN(Cc2cccc(O)c2)CC1)C1CCCC1	-0.57	i
CC(C)C(C(=O)OCC(=O)c1cccc([N+](=O)[O-])c1)N1C(=O)[C@@H]2[C@H]3CC[C@H](C3)[C@@H]2C1=O (stereo not given in full)	-3.4	i
COc1ccc(Cl)cc1NC(=O)CCN1CCN(c2ccccc2C)CC1	0.05	i
CC(C)Cc1nnc(NC(=O)CCc2c[nH]c3ccccc23)s1	0.56	i
CC1CCC(NC(=O)C(NC(=O)c2ccccc2)C(C)C)CC1 (stereo not given)	-0.55	i
O=C(NC1CCCC1)C(c1ccccn1)N(C(=O)c1csnn1)C1CCCCC1 (stereo not given)	0.2	i
C=CCNC(=O)c1ccc(-c2nc3ccccc3nc2-c2ccccc2)cc1	1.9	i

# An excerpt from above in order of the KCNQ2 inh baseline value, low to high:
molecule | KCNQ2 inh baseline
COc1cc(C(=O)NNC(=O)c2cc(C)[nH]n2)cc(OC)c1OC | -0.68
CCOC(=O)c1cccc(NC(=O)C2(S(=O)(=O)c3ccc(C)cc3)CC2)c1 | -0.23
CC(C)Cc1nnc(NC(=O)CCc2c[nH]c3ccccc23)s1 | 0.56
Cc1c(NC(=O)COC(=O)c2ccc(F)c(S(=O)(=O)N3CCOCC3)c2)c(=O)n(-c2ccccc2)n1C | 1.4
COc1ccc([N+](=O)[O-])cc1N1C(=O)c2cccc3cccc(c23)C1=O | 3.7

# New compounds follow:
molecule	KCNQ2 inh baseline	KCNQ2 inh
Cc1ccc(-c2cc(O)cc3sc(=O)oc23)cc1C	-0.86	i
Cc1ccc(NC(=O)N2CCC(O)(c3ccc(Cl)cc3)CC2)cc1	-0.51	i
CCOC(=O)c1cnc2c(Cl)c(Cl)ccc2c1N1CCN(C)CC1	-1.5	i
O=c1n(-c2ccc(Br)cc2)cnn1-c1ncccc1[N+](=O)[O-]	0.18	i
Cc1cccc(N(CC(=O)O)CC(=O)O)c1	1.2	i
CCc1ccc(CNc2ccc3c(c2)ncn3C)cc1	0.55	i
CCOC(=O)C1CCCN(c2c(N3CCN(c4cccc(Cl)c4)CC3)c(=O)c2=O)C1 (stereo not given)	-0.46	i
CC(C)OC(=O)c1ccc(NC(=O)C2C3CC4OC(=O)C2C4C3)cc1 (stereo not given)	1.4	i
CCOC(=O)CC(=O)CSc1nc2ccc(OC)cc2cc1C	0.62	i
CCOc1ccc(CCNC(=O)COC(=O)c2cc(S(=O)(=O)N3CCOCC3)ccc2F)cc1OCC	-0.01	i
Cc1c(/C(O)=C2\C(=O)C(=O)N(CCN(C)C)C2c2ccccc2)cnn1-c1ccccc1 (stereo not given)	-0.13	i
FC(F)(F)c1cccc(N2CCN(C3CC4CCC3C4)CC2)c1 (stereo not given)	0.54	i
C=CCNC(=S)NNC(=O)c1ccco1	0.99	i
Cc1nn(-c2ccccc2)c2c1C(c1ccc(F)cc1F)C(C#N)=C(N)O2 (stereo not given)	-0.37	i
c1c(CC2CCCC2)nnn1C[C@H]1CC[C@@H]([C@@H]2CC[C@H](Cn3cc(CC4CCCC4)nn3)O2)O1	-3.6	i
CCOC(=O)c1c(C)n(C)c2ccc(OCC(N)=O)cc12	-1.2	i
CC(C)=CC(=O)Nc1ccccc1C(N)=O	0.21	i
Cc1ccccc1NNC(N)=S	2	i
CN(c1ccc(OCC(=O)N2CCC(C(N)=O)CC2)cc1)S(=O)(=O)c1cccs1	-0.39	i
Cc1nc(C(C)N(C)Cc2nc(Cc3ccccc3F)no2)c(C)s1 (stereo not given)	-0.38	i
CCN(CC(=O)Nc1c(F)cccc1F)C(=O)C1CC(=O)N(CCc2ccccc2)C1 (stereo not given)	0.44	i
Cc1ccc(CSc2nncn2-c2ccccn2)cc1	5.6	i
O=C(NCc1ccccn1)c1ccc(N2CCCC2=O)cc1	0.05	i
CCOC(=O)C(=CNc1cscc1S(=O)(=O)C(C)C)C(=O)OCC	-0.14	i
O=P(OC1CCCCC1)(OC1CCCCC1)C(Nc1ccccc1)c1cccnc1 (stereo not given)	-0.77	i
O=C(O)/C=C/c1cn(-c2ccccc2)nc1-c1ccc2c(c1)OCCO2	1.3	i
CCOC(=O)c1ccc(C(=O)OCC)nc1	-0.64	i
Cc1cccc(Nc2nc(NCc3ccco3)c3ccccc3n2)c1	0.02	i
Cc1cc(C)n2nc(SCC(=O)N(C)c3c(N)n(Cc4ccccc4)c(=O)[nH]c3=O)nc2n1	0.25	i
N#Cc1cc(Cl)c(NCC2CCCO2)cc1C#N (stereo not given)	0.53	i
Cc1ccc(NC(=O)CCC(=O)NNC(=O)Cc2ccccc2)cc1C	-0.02	i
O=C(NCc1ccccc1)NC1(C(=O)N2CCN(c3ncccn3)CC2)CCCCC1	1.2	i
COc1ccc(S(=O)(=O)Nc2cc3c4c(oc3c3ccccc23)CC(C)(C)CC4=O)cc1	-0.15*	-6.5*
CCCCOC(=O)Nc1nc(CC(=O)OCC)cs1	-0.77	i
Cc1ccc(C(=O)CC(SCC(=O)O)c2ccc([N+](=O)[O-])cc2)cc1 (stereo not given)	0.04	i
O=C(CCCN1C(=O)c2ccccc2C1=O)N1CCOCC1	-0.93	i
CCCCNC(=O)Cn1cnc([N+](=O)[O-])n1	0.05	i
Cc1c(C)c2ccc(OCC(=O)NCc3ccccn3)cc2oc1=O	-0.39	i
O=C(NCCC1=CCCCC1)c1cc(S(=O)(=O)N2CCOCC2)ccc1Cl	-0.49	i
O=C(COC(=O)c1ccc([N+](=O)[O-])o1)NC1CCS(=O)(=O)C1 (stereo not given)	0.19	i
N#Cc1ccc(C(c2nnnn2CCc2ccccc2)N2CCCCCC2)cc1 (stereo not given)	-2.4	i
CCCN1CCN(S(=O)(=O)c2cn(C)nc2C)CC1	1.9	i
O=C(Nc1nc2c(s1)CCCC2)C1CCCN1C(=O)c1cccs1 (stereo not given)	-0.75	i
Clc1ccc(-c2noc(CN(Cc3ccccn3)CC3CCCO3)n2)cc1 (stereo not given)	-0.68	i
COc1ccccc1NC(=S)N(Cc1ccco1)Cc1cc2cc(C)ccc2[nH]c1=O	0.24	i
O=C1CC(Sc2cccs2)C(=O)N1c1ccccc1 (stereo not given)	0.18	i
Cc1ccc(N(CC(=O)NC2CCCCCC2)S(=O)(=O)c2c(C)nn(C)c2C)cc1	1.3	i
CN(C)CCCNC(=O)CCc1nc2ccccc2c(=O)[nH]1	-1.8	i
CCc1ccc2[nH]c(=O)c(CN(CCCN3CCOCC3)C(=O)Nc3ccc(F)cc3)cc2c1	-3.1	i
CCCCC(=O)Nc1cnc(NC(=O)c2ccco2)cc1C	-1.5	i
Cc1ccc2c(C(=O)CN3CCCCC3CCO)c(C)[nH]c2c1 (stereo not given)	-0.03	i
CN1Cc2c(N3CCOCC3)nc(SCc3ccccc3)c(C#N)c2CC1(C)C	-1.1	i
O=C(Cn1c(N2CCN(C/C=C/c3ccccc3)CC2)nc2ccccc21)c1ccccc1	1.6	i
COc1ccc(C(=O)C2CCCN(Cc3c(O)cccc3OC)C2)cc1OC (stereo not given)	-0.05	i
CC(C)(C)[C@H]1C=C(C(=O)Nc2ccccc2)O[C@@H](OCc2ccc(CO)cc2)C1	-0.11	i
CC(C)c1ccc(NC2CCCN(C(=O)c3cscn3)C2)cc1 (stereo not given)	0.39	i
COc1ccc2cc(CCNC(=O)c3c(-c4ccccc4Cl)noc3C)c(=O)[nH]c2c1	1.1	i
CC(NCc1cccn1C)c1ccccc1 (stereo not given)	1.2	i
O=C(CN1C(=O)c2cccc3cccc(c23)C1=O)N1CCN(c2ccccn2)CC1	1.1	i
CC(=O)Nc1nnc(/C=C/c2cccc([N+](=O)[O-])c2)s1	0.28	i

# Next section
molecule	KCNQ2 inh baseline	KCNQ2 inh
CCn1ncc(Br)c1C(=O)Nc1ccc(C(=O)OC(C)C)cc1	-0.06	i
CC1=Nc2ccc3ccccc3c2C1(C)C	0.35	i
Cc1ccc(CNc2ccc(N3CCOCC3)c(Cl)c2)cc1	-0.1	i
CC(=O)NCCC(=O)Nc1cc(S(=O)(=O)N2CCOCC2)ccc1N1CCOCC1	4.3	i
CCCCCC(=O)NCc1c(C(F)(F)F)nn(C)c1N1CCOCC1	1.1	i
COc1cc(Br)cc(/C=C/c2ccc3cccc(O)c3n2)c1OC	-2.2	i
Cc1cccc(N2CC(O)(c3cccs3)[N+]3=C2CCCCC3)c1 (stereo not given)	0.81	i
COc1ccc2nc(N3CCCC(O)C3)c(C#N)cc2c1 (stereo not given)	4	i
CCOc1ccccc1N1CCN(CC(O)COC2CCCc3ccccc32)CC1 (stereo not given)	-1.2	i
FC(F)(F)c1nc(NCc2cccnc2)c2ccccc2n1	1.1	i
CCNc1cc2n(c(=O)n1)CCc1cc(OC)c(OC)cc1-2	0.01	i
Clc1ccc(CNc2ccc3nnc(-c4ccccc4)n3n2)cc1	-0.69	i
O=C(Nc1ccc(Cl)c(Cl)c1)Oc1ccc(NC(=O)c2ccco2)cc1	0.02	i
S=C(Nc1cccc(Cl)c1)Nc1ccc2cn[nH]c2c1	-2.9	i
Cc1cccc2c1N(C)C(=O)C2=O	0.13	i
O=C(Nc1ccc(NC(=O)c2sc3ccccc3c2Cl)cc1)c1ccco1	0.02	i
COc1cc(C)ccc1OCc1cc(C(=O)NCCN2CCOCC2)no1	1.8	i
C[C@@H]1CCC(=O)N(CC[C@H](Sc2ccccc2)c2ccccc2)CC1	-0.6	i
CC1=C(C)[N+](=O)C2CCCCC2N1[O-] (stereo not given)	0.27	i
Nc1c(S(=O)(=O)c2cccs2)c2nc3ccccc3nc2n1Cc1ccc2c(c1)OCO2	1.6	i
NS(=O)(=O)c1ccc(CNC(=O)C2CCCCC2)cc1	0.21	i
COc1cccc(/C=N/Nc2nc(N3CCCC3)nc(N3CCCC3)n2)c1O	-1.8	i
CCCC1=C(C(=O)OCC)C(c2cccnc2)n2nc(C)nc2N1 (stereo not given)	-0.31	i
Cc1c(C(=O)N2CCCCCC2)c(S(=O)(=O)Nc2cccc(F)c2)c(C)n1C	0.45	i
CCOc1c(Br)cc(/C=C(\C#N)C(=O)NC2CC2)cc1OC	0.69	i
Cc1ccc(C)c(NC(=S)NC(NC(=O)OCc2ccccc2)C(Cl)(Cl)Cl)c1 (stereo not given)	-0.14	i
O=C(NCCN1CCOCC1)c1ccc2c(c1)N(Cc1ccc(Cl)cc1)C(=O)CS2	-1.1	i
COC(=O)c1ccccc1N(Cc1ccccc1)S(C)(=O)=O	-0.08	i
O=C(CCCN1C(=O)/C(=C\c2cccs2)SC1=S)Nc1ccccn1	1.6	i

# Whole records, looked up by structure. Screens in order: KCNQ2 inh baseline	KCNQ2 inh
# O=C(Nc1ccc(Cl)c(Cl)c1)Oc1ccc(NC(=O)c2ccco2)cc1 reads 0.02	i
# Cc1ccc(C)c(NC(=S)NC(NC(=O)OCc2ccccc2)C(Cl)(Cl)Cl)c1 (stereo not given) reads -0.14	i
# CCOc1ccccc1N1CCN(CC(O)COC2CCCc3ccccc32)CC1 (stereo not given) reads -1.2	i
# FC(F)(F)c1nc(NCc2cccnc2)c2ccccc2n1 reads 1.1	i
# CC1=Nc2ccc3ccccc3c2C1(C)C reads 0.35	i

# Some of the compounds tested; count on the stated rates, not on these rows.
